D2 PAM = Beta-Arrestin HTS for Positive Allosteric Modulators of the Human D2 Dopamine Receptor: Potentiators | DiscoveRx D2 beta-arrestin cells, luminescence, 90 min; 100% = 57 uM dopamine signal | potentiation, % (test concentration not listed) | 0.23% of 360,000 active | AID 624464, 2012; active = potentiation of 50% or more; inconclusive = 30% to 50%; inactive = 30% or less;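 note: compound concentration not given in the record; tested on top of an EC20 dose of dopamine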
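D2 cells co-treated with compound plus 50 nM dopamine (EC20) for 90 min at 37 deg C to detect potentiation. Beta-arrestin recruitment was read as enzyme-fragment luminescence after 1 h at ambient temperature. Full response was set by 57 uM dopamine.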
D2 ag = Beta-Arrestin HTS for Positive Allosteric Modulators of the Human D2 Dopamine Receptor: Agonists. DiscoveRx PathHunter D2 beta-arrestin, luminescence, 90 min; 100% = 57 uM dopamine signal. activation, % (test concentration not listed). 0.084% of 360,000 active; in the data active = activation above about 40%; inconclusive = about 15% to 40%; inactive = below about 15%; note: compound concentration not given in the record; the text of the record calls up to 30% inactive
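Agonist mode: compounds alone added to overnight-plated D2 PathHunter cells for 90 min at 37 C, with 57 uM final dopamine (EC100) defining full response. Beta-arrestin recruitment detected by chemiluminescent reagent, read after 1 h at ambient temperature.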
PINK1 expr mod = A Quantitative High throughput Screen to Identify Chemical Modulators of PINK1 Expression. PINK1 immunofluorescence, high-content cytometry, 24 h. Potency, µM (highest dose often 76.6 µM), for the others: top-dose activation (PINK1 increase), most hits filed as activators. 0.2% of 410,000 active; active = well fitted activation curve with a large enough effect; inconclusive = small, poorly fitted or top-dose-only effect; inactive = flat fitted curve, though single readings scatter; cell line not stated here;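 note: potency is the fitted concentration of half-maximal effect; % of control where 0% means no effect; nearly all actives have a fitted effect of over 65% in size; a mitochondrial uncoupler was the plate control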
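Measures PINK1 amount and localization on or inside mitochondria by immunofluorescence. Stable cells get compounds at 5 concentrations for 24 hours before fixation and staining; CCCP controls included.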
Sfp PPTase inh = qHTS Assay for Inhibitors of Bacillus subtilis Sfp phosphopantetheinyl transferase (PPTase). Biochemical Sfp PPTase activity, qHTS. Potency, µM, without a hit: max response, negative = inhibition, usual class: inhibitors. 3.5% of 310,000 active; active = well fitted inhibition curve with a large enough effect; inconclusive = small, poorly fitted or top-dose-only effect, or another doubt; inactive = no such curve, though single readings can be large or run the other way;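 note: the enzyme is Sfp with the accession as filed and its product quenches rhodamine fluorescence; potency is the fitted concentration of half-maximal effect; 0% = enzyme reaction without inhibitor and -100% = no enzyme wells; top concentration of the series not given in the record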
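Buffer: 50 mM Hepes-Na pH 7.6, 10 mM MgCl2, 0.01% Nonidet P-40, 0.01% BSA. Enzyme 15 nM, pre-exposed to compound 15 min; substrates then added and fluorescence change tracked over 30 min.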
Six1-Eya2 blk = qHTS Assay for Inhibitors of the Six1/Eya2 Interaction | AlphaScreen GST-Six1/His-Eya2 binding, biochemical; stronger effect = lower value; control for the full effect not named in the record | activity change, % (test concentration not listed) | 0.56% of 360,000 active; in the data active = activity change below about -65%; inconclusive = about -30% to -65%; inactive = above about -30%; note: % is set by controls: 0 for no effect and ±100 for the full control effect; compound concentration not given in the record
Target sequence (O00167 whole entry, looked up): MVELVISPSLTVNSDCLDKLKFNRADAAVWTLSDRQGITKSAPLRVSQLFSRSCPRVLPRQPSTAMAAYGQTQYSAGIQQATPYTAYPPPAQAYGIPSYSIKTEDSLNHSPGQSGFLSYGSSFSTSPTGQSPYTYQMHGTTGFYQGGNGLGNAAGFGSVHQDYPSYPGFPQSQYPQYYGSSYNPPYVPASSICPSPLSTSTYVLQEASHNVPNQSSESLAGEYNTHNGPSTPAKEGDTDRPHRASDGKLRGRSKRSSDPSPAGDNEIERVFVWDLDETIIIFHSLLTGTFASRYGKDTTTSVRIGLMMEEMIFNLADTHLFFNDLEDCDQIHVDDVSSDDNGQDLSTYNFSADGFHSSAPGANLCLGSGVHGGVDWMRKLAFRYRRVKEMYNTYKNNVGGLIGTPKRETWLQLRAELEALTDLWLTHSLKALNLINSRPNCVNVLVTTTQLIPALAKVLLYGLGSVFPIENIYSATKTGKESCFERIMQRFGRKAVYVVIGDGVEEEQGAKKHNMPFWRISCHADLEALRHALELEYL
Target sequence (Q15475 whole entry, looked up): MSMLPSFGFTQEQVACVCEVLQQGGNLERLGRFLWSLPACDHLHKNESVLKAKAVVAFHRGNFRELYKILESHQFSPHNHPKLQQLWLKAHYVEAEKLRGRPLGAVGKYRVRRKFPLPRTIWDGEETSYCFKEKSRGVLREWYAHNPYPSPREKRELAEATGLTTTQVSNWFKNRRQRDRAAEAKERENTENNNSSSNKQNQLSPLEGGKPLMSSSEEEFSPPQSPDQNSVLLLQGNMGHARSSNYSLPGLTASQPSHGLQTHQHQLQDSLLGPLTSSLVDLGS
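AlphaScreen with GST-Six1 and His-Eya2 (5X mix: 250 nM and 500 nM), glutathione donor and nickel acceptor beads; buffer 50 mM Tris pH 8.0, 300 mM NaCl, 1 mM TCEP; 1 h at 37 C in the dark.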
CtBP-E1A inh = qHTS Assay for Inhibitors of the CtBP/E1A Interaction; CtBP / adenovirus E1A interaction (AlphaScreen); AlphaScreen GST-E1A/His-CtBP binding, 1536-well; stronger effect = lower value; control for the full effect not named in the record; activity change, % (test concentration not listed); 0.49% of 340,000 active; in the data active means activity change below about -65%; inconclusive means about -30% to -65%; inactive means above about -30%; note: % is set by controls: 0 for no effect and ±100 for the full control effect; compound concentration not given in the record
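AlphaScreen with 125 nM GST-E1A and 125 nM His-CtBP (5X stocks) in Tris pH 8.0, 300 mM NaCl, BSA, Tween 20, TCEP. Compounds preincubated 2 h at 37 deg C, then glutathione donor/nickel acceptor beads added for 1 h at 37 deg C in dark.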
TRPV1 potentiator = HTS Assay for Compounds that Act as Potentiators of the Vanilloid Receptor 1. TRPV1-expressing cells, Fluo-8 calcium influx, capsaicin EC20 potentiation; host cell line not named in the record; control for the full effect not named in the record. potentiation, % at 8.33 µM. Transient receptor potential cation channel subfamily V member 1 (Homo sapiens), Q8NER1. 0.02% of 320,000 active; active means potentiation above 80%; inconclusive means 30% to 80%; inactive means below 30%; note: 0% is about no effect
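Fluo-8 calcium influx in TRPV1-expressing cells, kinetic read (ex 480/em 520 nm). Compound added and read 3 min for agonist activity, followed by capsaicin at EC20 final and 2 min further read for enhancement.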
The depositor's hits bear a star; ? = inconclusive; nt = not tested or not shown; & = joins results of further samples; [ ] = another dose, or the depositor's remark.

Results follow in this order: Six1-Eya2 blk	D2 ag	PINK1 expr mod	Sfp PPTase inh	CtBP-E1A inh	TRPV1 potentiator	D2 PAM
CCn1nnnc1SCC(=O)Nc1sc(C)c(C)c1C#N
 : 2	-2.1	2.3%	8%	-2	0	-9
Cc1cccc(NC(=O)c2nc[nH]c2C(=O)N[C@@H](Cc2ccccc2)C(=O)OCc2ccccc2)c1
 : -4	-0.9	9.4%	24%	-4	9	-8
NS(=O)(=O)c1ccc(NC(=O)COC(=O)COc2ccc3ccccc3c2)cc1
 : 44	-3.2	-1.6%	-11%	-17	-2	-1
CSc1ccccc1C(=O)OCC(=O)NC1CC1
 : 0	-2.3	1.6%	nt	4	nt	-4
Cc1ccc(NC(=O)CCc2nc(-c3cccs3)no2)c(Br)c1
 : 10	3.3	0.3%	7%	1	17	-7
C=CCSc1ncccc1C(=O)O
 : -1	0.0	0.2%[38.3 µM]	-11%	26	-18	22
N#C/C(=C\Nc1ccc2cn[nH]c2c1)c1nc(-c2ccc(Cl)cc2)cs1
 : -1	1.7	5.6%	56µM*	-4	6	-1
COc1ccc(C)cc1S(=O)(=O)n1nc(C)cc1C
 : 0	1.7	0.3%	9%	0	6	-12
CCOC(=O)c1cnn(CCOC(=O)c2cccs2)c1NC(=O)c1cccs1
 : -1	-1.2	4.5%[38.3 µM]	3%	1	8	1
NS(=O)(=O)c1ccc2nc(NC(=O)c3ccc(Br)o3)sc2c1
 : 0	5.4	?	-2%	nt	-1	-6
O=C(COC(=O)c1oc2ccccc2c1CSc1ccc(Cl)cc1)NC1CCCC1
 : 54	-6.2	17%	-13%	nt	-6	-3
COc1ccc2nc(C)cc(SCC(=O)N/N=C/c3c(OC)ccc4ccccc34)c2c1
 : 0	-1.4	7.2%	-16%	-2	5	2
CN(NS(C)(=O)=O)c1c(C#N)c(C(F)(F)F)nn1C
 : 2	0.5	3.1%	16%	-3	13	-3
Cc1ccc(CNC(=O)Cn2c(=O)n(CC(=O)N3CCCCC3)c(=O)c3sccc32)cc1
 : 4	-1.8	0.7%	12%	nt	4	-7
CCN(CC)c1ccc(C(=O)c2ccccc2C(=O)O)c(O)c1
 : 0	-1.7	2.2%	10%	8	?	-4
COc1cc(C2C3=C(COC3=O)Oc3cc4c(cc32)OCO4)ccc1OC(C)=O (stereo unspecified)
 : -5	2.8	11%	nt	-1	nt	-2
CCCn1c(SCC(=O)NC2CCCCC2C)n[nH]c1=O (stereo unspecified)
 : 1	-2.4	-2.7%	-10%	3	10	-13
CC1Cc2nc(SCC(=O)Nc3ccc4c(c3)OCO4)n(-c3ccc(F)cc3)c(=O)c2S1 (stereo unspecified)
 : -20	-0.8	-0.2%	6%	-9	0	-5
COc1cccc2cc(C(=O)c3ccc([N+](=O)[O-])cc3)oc12
 : -16	13	-0.3%	18%	-13	-4	20
Cc1ccc(-n2nc(C)c(NS(=O)(=O)c3ccccc3)c2C)cc1C
 : -2	-2.4	0.3%[38.3 µM]	8%	-2	5	-15
CCCCN=C(C)c1c(O)c2ccccc2oc1=O
 : 0	-2.4	-0.6%	4%	11	-3	4
CC(CC(=O)NCCc1ccc(S(N)(=O)=O)cc1)c1ccccc1 (stereo unspecified)
 : -3	-2.8	-0.9%	6%	nt	-5	-38
CCN1CCN(C(=O)c2ccccc2N(Cc2ccccc2)S(=O)(=O)c2ccc(C)cc2)CC1
 : -1	-2.2	-2.3%	-13%	-3	-7	-36
CCN(CC)CCCNC(=O)c1cc2c(=O)n(CC)c3ccccc3c2s1
 : -3	1.4	5.4%	5%	-4	6	-11
CCC(C)C(NC(=O)/C(=C\c1ccccc1)NC(=O)c1ccc(OC)cc1)C(=O)O (stereo unspecified)
 : 12	-2.3	0.0%	-3%	1	2	-13
O=C1[C@@H]2[C@@H]3C[C@@H]([C@H]4ON=C(c5ccc(Cl)cc5)[C@@H]34)[C@@H]2C(=O)N1c1ccc2c(c1)OCO2
 : -2	0.5	0.0%	16%	-9	1	-1
CCC(c1nnnn1-c1c(C)cccc1C)N1CCN(CCN2CCOCC2)CC1 (stereo unspecified)
 : 9	nt	0.4%	nt	6	nt	nt
CCOC(=O)C1CCCN(c2c(N3CCOCC3)c(=O)c2=O)C1 (stereo unspecified)
 : 7	-6.1	1.4%	7%	-2	2	0
O=C(CCCCCn1c(=S)[nH]c2ccc(Br)cc2c1=O)NCC1CCCO1 (stereo unspecified)
 : 0	0.2	nt	-6%	-1	1	-1
O=C(CN1CCN(Cc2ccccc2Cl)C1=O)N1CCCCCC1
 : 6	0.7	0.5%	17%	3	4	-25
COc1ccc(OC)c(-c2csc(NC(=O)CSCc3c(C)noc3C)n2)c1
 : -12	-0.9	-3.2%	nt	-18	-2	-16
CCc1nn2c(N3CCOCC3)cc(C)nc2c1-c1ccc(F)cc1
 : 30	-2.3	6.0%	-5%	9	1	-16
CC1(C)CC(NC(=O)C23CCC(C)(C(=O)C2=O)C3(C)C)CC(C)(C)N1 (stereo unspecified)
 : 3	-2.5	-1.8%	13%	2	3	-4
O=C1c2ccccc2C(=O)N1CC1c2ccccc2CCN1S(=O)(=O)c1cnc[nH]1 (stereo unspecified)
 : 1	0.7	1.7%	11%	-3	2	21
COc1ccc(CCN2C(=O)CC(Sc3ncccc3C(=O)O)C2=O)cc1OC (stereo unspecified)
 : -4	-4.8	1.6%	0%	-7	6	-1
C#CCOCCOCCOCCNc1nc(N2CCOCC2)nc(N2CCN(C(=O)[C@H](CC(N)=O)n3cc([C@@H](N)C(C)C)nn3)CC2)n1
 : 4	-3.1	0.2%	nt	-3	nt	-10
O=C(Nc1ccc2c(c1)OCCO2)c1ccncc1
 : -1	0.5	-1.8%	-21%	-1	-4	10
COCCNC(=O)C(OC(=O)C1=Cc2ccccc2OC1)C(C)C (stereo unspecified)
 : 11	-2.8	-1.3%	15%	0	-7	4
CCOc1cc(C(=O)Nc2ccc(N3CCN(C(C)=O)CC3)cc2)cc(OCC)c1OCC
 : 0	-3.5	0.6%	13%	7	0	-5
Cc1c(Cl)cccc1N(Cc1ccc(C(=O)O)cc1)S(=O)(=O)c1ccccc1
 : 4	1.9	-1.1%	19%	-4	-1	-4
COc1cc(NC(=O)c2cc(-c3ccc4c(c3)OCO4)on2)cc(OC)c1OC
 : -6	-1.9	8.4%&10.0%	11%	-12	0	-4
COC(=O)c1ccc(NC(=O)c2ccc3nccnc3c2)cc1
 : -12	-2.6	-0.2%	6%	-20	-16	-6
COc1ccc(Cc2nnc(NC(=O)c3ccc(OC)c(OC)c3)s2)cc1OC
 : 1	-3.9	3.2%	5%	-5	?	-5
CCN1C(=O)N(c2ccc(C(C)=O)cc2)S(=O)(=O)c2ccccc21
 : 5	-4.5	1.6%&1.6%	19%	nt	2	-9
Cc1ccc(CNS(=O)(=O)c2ccc(-c3cnc(C4CC4)o3)cc2)cc1
 : 3	-4.7	6.9%&-0.5%	1%	nt	27	-9
COc1ccccc1-c1ccc(SCC(=O)NCc2ccc3c(c2)OCO3)nn1
 : 0	-4.1	0.5%	2%	-2	14	-6
COc1ccc(-c2sc(Nc3ccccc3)n[n+]2-c2ccc(F)cc2)c(C)c1C
 : -16	0.9	?	-3%	nt	-7	-19
O=C(CN1C(=O)c2ccccc2S1(=O)=O)NCCSCc1cccc(Cl)c1
 : 17	3.2	-2.1%	18%	0	2	0
Cc1nn(C)c(C)c1/C=N/NC(=O)CCn1cc([N+](=O)[O-])cn1
 : -9	-2.0	-2.1%	-1%	-12	9	-8
CCCCN1C(=O)CCC(C(=O)O)C1c1ccc(OC)cc1 (stereo unspecified)
 : 3	-4.3	-0.2%	1%	0	-13	1
COc1cccc(NC(=S)N(CCN(C)C)Cc2cccs2)c1
 : 0	-2.5	0.7%	6%	-1	0	-8
O=C(Cc1ccccc1)Nc1cccc(-c2nc3ncccc3o2)c1
 : -23	-2.8	2.9%	-28%	-17	nt	-9
CN(C)CC/C=C1\c2cc(F)ccc2CSc2ccccc21
 : -3	-3.5	13%	79µM*	-3	-4	-52
Cc1ccc(NC(=O)CCC(=O)O)cc1F
 : 2	-0.1	-3.6%[38.3 µM]	9%	5	2	-6
Cc1nc2ccc(NS(=O)(=O)c3c(F)cccc3F)cc2s1
 : -3	1.5	1.5%	nt	1	nt	-7
COc1ccc(OC)c(N(CC(=O)N2CCCC2)S(=O)(=O)c2ccc(OC)c(OC)c2)c1
 : 9	0.6	1.8%[38.3 µM]	19%	10	-11	-1
COc1ccc(OC)c(C2NC(=O)c3sc(=S)n(-c4ccccc4)c3N2)c1 (stereo unspecified)
 : -3	-2.6	?	?	-6	-2	-11

3 entries picked at random from those above:
Results follow in this order: Six1-Eya2 blk	D2 ag	PINK1 expr mod	Sfp PPTase inh	CtBP-E1A inh	TRPV1 potentiator	D2 PAM
Cc1ccc(CNS(=O)(=O)c2ccc(-c3cnc(C4CC4)o3)cc2)cc1
 : 3	-4.7	6.9%&-0.5%	1%	nt	27	-9
CC(CC(=O)NCCc1ccc(S(N)(=O)=O)cc1)c1ccccc1 (stereo unspecified)
 : -3	-2.8	-0.9%	6%	nt	-5	-38
CCOC(=O)c1cnn(CCOC(=O)c2cccs2)c1NC(=O)c1cccs1
 : -1	-1.2	4.5%[38.3 µM]	3%	1	8	1
